eIF4H FP inh: inhibitors of RNA binding by human eIF4H; eIF4H fluorescence polarization binding assay; inhibition, % at 35 µM; actives 0.94% (n = 290,000);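 active = 50% or more with normal probe brightness, or confirmed in later tests; about a fifth of its hits are not listed in these tables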;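 also: calls also rest on retests at 20 µM and on dose response follow-up; 0% = protein and probe with vehicle and 100% = probe without protein; strong numbers were not always called active; many hits fall short of the cut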
Rce1 inh: inhibitors of yeast Ras-converting enzyme; Q03530; yeast membranes, quenched prenylated peptide cleavage fluorescence; calls only; actives 0.27% (n = 290,000); AID 2563;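 active = fall in fluorescence gain of 50% or more versus controls, with final raw signal at or below 3038400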;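 also: plate controls were neutral control wells for no effect and wells lacking membranes for full effect; tested at 10 µM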
Env fusion inh: inhibitors of HIV Env-mediated cell fusion. AID 651610. inhibition, % at 12.3 µM. HeLa-JRFL Env/CEM21 cell fusion, luciferase. actives 1.1% (n = 360,000);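 active = mean replicate inhibition score of at least 50 and every replicate individually at or above 50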;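 also: 0% = plate neutral controls and 100% = maraviroc near 300 nM; one replicate is shown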
PABP FP inh: PABP-poly(A) binding inhibition | actives 1% (n = 290,000) | PABP-poly(A) RNA binding, fluorescence polarization | inhibition, % at 35 µM | P11940;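 active = 50% or more with normal probe brightness, or confirmed in later tests; about a fifth of its hits are not listed in these tables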;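 also: calls also rest on retests at 20 µM and on dose response follow-up; controls were probe without protein and protein plus probe with vehicle; some compounds called inactive have numbers as strong as hits; many hits fall short of the cut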
Target sequence (P11940 whole entry, looked up): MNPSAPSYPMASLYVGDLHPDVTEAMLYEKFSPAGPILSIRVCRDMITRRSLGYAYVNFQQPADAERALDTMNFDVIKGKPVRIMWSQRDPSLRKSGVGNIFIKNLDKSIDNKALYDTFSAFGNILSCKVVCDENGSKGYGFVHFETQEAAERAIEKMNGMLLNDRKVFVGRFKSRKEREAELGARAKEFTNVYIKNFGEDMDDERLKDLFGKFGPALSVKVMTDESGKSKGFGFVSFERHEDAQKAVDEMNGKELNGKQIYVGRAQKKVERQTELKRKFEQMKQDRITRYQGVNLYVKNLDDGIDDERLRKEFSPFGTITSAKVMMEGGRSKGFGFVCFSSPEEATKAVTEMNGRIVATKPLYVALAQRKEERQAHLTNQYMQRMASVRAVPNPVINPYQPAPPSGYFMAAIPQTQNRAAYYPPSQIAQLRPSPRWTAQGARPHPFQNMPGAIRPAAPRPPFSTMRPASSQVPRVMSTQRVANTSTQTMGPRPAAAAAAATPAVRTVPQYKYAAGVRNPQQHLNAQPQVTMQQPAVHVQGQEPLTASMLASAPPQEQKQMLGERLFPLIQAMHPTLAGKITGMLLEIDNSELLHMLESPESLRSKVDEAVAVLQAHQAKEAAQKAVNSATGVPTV
UUG fidelity: yeast start codon fidelity modulation. S. cerevisiae UUG-firefly luciferase reporter, luminescence/redox ratio. activity score, % at 18.7 µM. actives 0.13% (n = 350,000);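 active = replicate mean at a twofold rise or more, about +100% in these data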;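 also: firefly luciferase made from a UUG start codon reports start codon fidelity; reporter light over untreated wells divided by growth signal over untreated wells; some hits fall short of that in this replicate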
MT1-MMP act inh: MT1-MMP (human) activation inhibition; P50281; HT1080 RFP-PRO-GFP cells, GFP/RFP ratio fluorescence, overnight; percent of plate control window, DMSO zero; GFP/RFP ratio change, % at 20 µM; actives 0.061% (n = 360,000);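 active = GFP/RFP ratio change of at least 30% with cell ATP level not reduced by more than half and red fluorescence within 50% of control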; also: strong numbers were not always called active
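system = RFP-PRO-GFP reporter HT1080 cells | dosing = 20 µM single dose, 1% DMSO | timing = overnight cell settling, then overnight compound exposure, 37 °C, 5% CO2 | read-out basis = GFP/RFP fluorescence ratio | controls = DMSO and RFP-L50D-GFP cell wells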
CSC inhib: blocks cancer stem cells. actives 1.1% (n = 300,000). inhibition, % at 7.5 µM. AID 2717. cancer stem cell-like cells viability, luminescence;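 active = mean at 75% or more and at least half the replicates too; tested in HMLE shEcad cells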;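 also: 0% = median of negative and 100% = median of positive control wells; the first replicate is given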
eIF4H FP inh retest: recorded beside eIF4H FP inh, whose call it bears; inhibition, %; compound at 20 µM; confirmation average;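 mean of two retest wells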
PABP FP inh retest: recorded beside PABP FP inh, whose call it bears; inhibition, %; compound at 20 µM; confirmation repeats;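 mean of two retest wells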
MT1-MMP act inh RFP: also measured in MT1-MMP act inh; calls as there; RFP signal change, %; measured here: RFP expression control read;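 0 = vehicle wells; hits needed this value within 50% of zero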
The depositor's hits bear a star; i = inactive; nt = not tested or not shown; + = active, no number. The list is partial; the hit share may differ from the screen's.

SMILES | eIF4H FP inh | Rce1 inh | Env fusion inh | PABP FP inh | UUG fidelity | MT1-MMP act inh | MT1-MMP act inh RFP | CSC inhib | others
Cn1cccc1/C=N/NC(=O)c1ccc(OC(F)(F)C(F)F)cc1 | 9.7* | i | nt | 116 | nt | 0 | 1 | 2 | eIF4H FP inh retest=56*;PABP FP inh retest=40
Cc1ccc2oc(=O)cc(/C=C/c3ccccc3)c2c1 | -11 | i | -5 | -12 | nt | -1 | 4 | -14
NNC(=O)C(Cc1ccccc1)NC(=O)OCc1ccccc1 (stereo not given) | 4 | i | -10 | 6 | nt | -2 | 3 | 2
O=c1c(C=NCCCn2ccnc2)c(-c2ccccc2)[nH]n1-c1nc2ccccc2s1 | 2 | i | nt | -7 | nt | 1 | 7 | -9
CCOC(=O)C1=C(COC(=O)/C=C/c2ccccc2)NC(=O)NC1C (stereo not given) | nt | i | 12 | nt | -13 | 0 | 3 | nt
Fc1cccc(Nc2cc(-n3cccn3)ncn2)c1 | 1 | i | 10 | 14 | -5 | -1 | -14 | 0
CC(=O)NC1=NN(C(C)=O)C(C)(c2ccc(C)cc2)S1 (stereo not given) | -1 | i | -12 | -7 | -4 | 3 | 0 | -6
CC(C)(CO)NCc1cc(Br)ccc1OCc1ccccc1 | -6 | i | -38 | 11 | -8 | -6 | -5 | 5
CCOC(=O)c1[nH]c2ccc(OC)cc2c1NC(=O)c1ccccc1C(=O)O | 16 | i | -5 | 16 | nt | 2 | 4 | -19
CC(=O)NC(Cc1ccccc1)C(=O)NC1CCN(C(=O)c2cnccn2)CC1 (stereo not given) | 0 | i | 3 | -13 | nt | -3 | 0 | nt
Cn1c2ccccc2c(=O)c2c(=O)n(-c3ccccc3)c(-c3ccc(C(C)(C)C)cc3)nc21 | -4 | i | -89 | 4 | nt | 2 | -4 | -18
Clc1ccc(-c2nc(-c3ccccn3)no2)cc1Cl | 5 | i | nt | -1 | -29 | 3 | 3 | 19
Cc1cc(C)c(S(=O)(=O)NCC(=O)O)cc1C | 10 | i | -65 | 3 | nt | 4 | 5 | -12
Cc1nn(C)c(C)c1/C=N/NC(=O)C(C)(C)Oc1ccc(Cl)cc1 | -1 | i | nt | 6 | -6 | -10 | -1 | nt
CN1CCCN(C(=O)CNC(=O)Cc2ccccc2)CC1 | -11 | i | 19 | 1 | -4 | 3 | 3 | 13
C=CCC1(CC=C)CCCN1C(=O)c1cc(COc2ccccc2SC)on1 | -16 | i | 12 | 2 | 6 | -3 | -6 | -8
COCCNC(=O)c1ccc(C)cc1C | -2 | i | 2 | 4 | -14 | -1 | -1 | -18
CCOc1ccccc1OCCCC(=O)Nc1nc2ccccc2[nH]1 | 1 | i | -12 | 10 | nt | 5 | -2 | -8
Cc1ccc(CNC(=O)C2CCN(C(=O)Nc3ccc(C)cc3)CC2)cc1 | 7 | i | 8 | 3 | 5 | 6 | 3 | nt
Cc1cc(Cl)ccc1OCC(=O)N[C@@H](Cc1ccccc1)c1nc2ccccc2[nH]1 | -10 | i | -8 | 1 | nt | -4 | -4 | 20
CCOc1ccc(N2C(=O)c3ccc(C(=O)OCC(=O)N(CC)C4CCS(=O)(=O)C4)cc3C2=O)cc1 (stereo not given) | 2 | i | 0 | 4 | -3 | 4 | 5 | -8
COc1cc(NS(=O)(=O)c2cn(C)cn2)cc(OC)c1OC | -11 | i | -3 | 4 | 1 | 2 | 3 | 6
CC(C)c1ccc(N(C(=O)c2snc(C(N)=O)c2N)C(C(=O)NC2CCCC2)c2ccncc2)cc1 (stereo not given) | -7 | i | 17 | -8 | -15 | 1 | -2 | nt
Cc1cc(C)cc(NC(=O)NCc2ccccn2)c1 | -3 | i | 0 | 4 | -14 | 5 | 6 | 3
O=C(Nc1cccc(N2C(=O)C=CC2=O)c1)c1cccs1 | nt | i | 8 | nt | -23 | -1 | 0 | 11
Next part:
SMILES | eIF4H FP inh | Rce1 inh | Env fusion inh | PABP FP inh | UUG fidelity | MT1-MMP act inh | MT1-MMP act inh RFP | CSC inhib | others
C=CCOC(=O)CSCC(NC(=O)OC(C)(C)C)C(=O)OCC (stereo not given) | -6 | i | nt | -6 | -9 | 3 | 4 | -13
Cc1nc([N+](=O)[O-])cn1CC(=O)c1ccc(Cl)cc1 | 2 | i | 9 | 11 | -16 | 4 | 2 | 5
COc1ccc(Cl)cc1-c1cc(C(=O)NCc2ccc(C(F)(F)F)cc2)[nH]n1 | nt | nt | 16 | nt | -26 | -5 | -7 | nt
COc1ccc(/C(C)=N/NC(=O)CNC(=O)Cc2ccccc2)c(OC)c1 | -11 | i | 9 | 14 | -2 | 1 | 0 | -4
CCC1(CC)Cc2ccccc2-c2nc(-c3ccccc3)oc(=O)c21 | -10 | i | nt | -9 | -16 | 2 | 0 | 21
Cn1c(N/N=C/c2ccccc2)nc2sc3c(c2c1=O)CCC3 | -3 | i | nt | -3 | -23 | 5 | 8 | -5
CC1(C)CC2CC(C)(CN2S(=O)(=O)c2ccc(C(=O)Nc3cc(S(=O)(=O)N4CCOCC4)ccc3Cl)cc2)C1 (stereo not given) | 14 | i | -16 | -8 | nt | -3 | -12 | nt
CC(C)(C)C1(C)OC(C(=O)NC2CCCCC2)C(C(=O)NC2CCCCC2)O1 (stereo not given) | -11 | i | nt | 3 | -2 | -7 | -8 | -15
O=C(c1ccco1)N1CCN(c2ncnc3c2nnn3Cc2ccccc2Cl)CC1 | 3 | i | nt | 12 | -6 | 6 | -12 | 4
O=c1[nH]c(/C(Cl)=C/c2cccc(F)c2)nc2cc(C(F)(F)F)ccc12 | 11 | i | 15 | -4 | nt | 0 | -2 | 20
Cc1nc(-c2ccccc2)nc(Cl)c1Cl | -1 | i | 0 | -12 | nt | -1 | 1 | -4
CC(C)c1ccc(NC(=O)C2CCCN(S(=O)(=O)c3cnc[nH]3)C2)cc1 (stereo not given) | 8 | i | -13 | -2 | 5 | -1 | 0 | -15
Cc1cc(-c2ccc(C)c(S(=O)(=O)NCc3ccc(Br)cc3)c2)on1 | -4 | i | 25 | 1 | 5 | -12 | -13 | 13
O=S1(=O)CC/C(=N\Nc2ccccc2)c2ccsc21 | 5 | i | 16 | -11 | nt | 7 | -1 | 8
CCOc1ccc2ccccc2c1C(=O)Nc1cc(=O)n(C)c(=O)n1C | -7 | i | 13 | 4 | -17 | 1 | 1 | 13
Cc1cc(-c2nnc(SCC(=O)Nc3ccccc3C)n2N)n[nH]1 | 3 | i | 6 | -8 | -18 | 1 | 3 | -3
O=S1(=O)NC(C2CC2c2ccccc2)CCO1 (stereo not given) | 1 | i | -11 | -9 | -18 | -7 | -3 | -12
CC(O)C1C(=O)OC2(C)CC(C)(C)NC(=S)N12 (stereo not given) | 6 | i | -38 | 6 | -25 | 3 | 7 | -14
COCCCNC(=O)CSc1nc2ccc(N3CCOCC3)cc2c(=O)n1CCc1ccccc1 | nt | i | -17 | nt | -19 | -1 | -2 | 21
O=C(CN(C(=O)CCC(=O)Nc1ccccn1)c1cccc(F)c1)NCc1ccc(F)cc1 | -12 | i | -6 | -3 | -7 | -3 | -5 | nt
O=C(NCCCN1CCCC1=O)c1cccc(S(=O)(=O)N2CCN(c3ccc(F)cc3)CC2)c1 | -11 | i | 24 | -14 | 6 | 1 | -4 | nt
CCc1ccc(N2C(=O)c3cc(N4CCOCC4)c([N+](=O)[O-])cc3C2=O)cc1 | -3 | i | nt | -7 | nt | nt | nt | 1
CC(C)c1ccc(NC(=O)CCNS(=O)(=O)c2cccc3nsnc23)cc1 | -4 | i | nt | 0 | nt | 5 | -1 | -8
O=C(NNC(=O)C1CC=CCC1)c1ccccc1Br (stereo not given) | -4 | i | 8 | 3 | -21 | 1 | 2 | -11
CC(=O)OCC(=O)C1(O)CCC2C3CC(C)C4=CC(=O)C=CC4(C)C3(F)C(O)CC21C (stereo not given) | nt | nt | i | nt | -13 | -7 | 3 | nt

The final 4 records of the part above are carried over, then new ones follow:
SMILES | eIF4H FP inh | Rce1 inh | Env fusion inh | PABP FP inh | UUG fidelity | MT1-MMP act inh | MT1-MMP act inh RFP | CSC inhib | others
CCc1ccc(N2C(=O)c3cc(N4CCOCC4)c([N+](=O)[O-])cc3C2=O)cc1 | -3 | i | nt | -7 | nt | nt | nt | 1
CC(C)c1ccc(NC(=O)CCNS(=O)(=O)c2cccc3nsnc23)cc1 | -4 | i | nt | 0 | nt | 5 | -1 | -8
O=C(NNC(=O)C1CC=CCC1)c1ccccc1Br (stereo not given) | -4 | i | 8 | 3 | -21 | 1 | 2 | -11
CC(=O)OCC(=O)C1(O)CCC2C3CC(C)C4=CC(=O)C=CC4(C)C3(F)C(O)CC21C (stereo not given) | nt | nt | i | nt | -13 | -7 | 3 | nt
Cc1ccc([C@@H]2[C@@H]3C(=O)N(C)C(=O)[C@@H]3[C@]3(C)C(=O)N(Cc4ccccc4)CC(=O)N23)o1 | -3 | i | -1 | 8 | -10 | 0 | 0 | 0
CCN1CCN(c2cc(C)c3cc(NC(=O)c4ccc(OC)c(OC)c4)ccc3n2)CC1 | 5 | i | -41 | -27 | -17 | 8 | 2 | 19
O=C(c1ccc(Cl)cc1)N1CCc2c([nH]c3ccccc23)C1C(F)(F)F (stereo not given) | 1 | i | 24 | 7 | -25 | 5 | -10 | 8
CC(C(=O)Nc1ccccn1)N1C(=O)c2ccccc2S1(=O)=O (stereo not given) | nt | i | 14 | nt | -3 | 1 | 0 | 7
O=C(/C=C/c1cccc([N+](=O)[O-])c1)N1CCN(c2ccccc2F)CC1 | -8 | i | 13 | 20 | -4 | 1 | 3 | -6
Cc1cc(=O)n2ccccc2c1C#N | -2 | + | 6 | -4 | -9 | 4 | 5 | nt
CCOc1ccc(N2C(=O)CC(Sc3nc(-c4cccs4)cc(C(F)(F)F)c3C#N)C2=O)cc1 (stereo not given) | -9 | i | nt | 5 | -9 | -6 | -4 | 7
COCC(C)NC(=O)C1CC(=O)N(CCc2ccc(F)cc2)C1 (stereo not given) | nt | nt | 17 | nt | -11 | -3 | -1 | nt
CC1CCN(c2nc3ccc(C(=O)NCCCN4CCCCC4)cc3s2)CC1 | 18 | i | -102 | -17 | -21 | 0 | -1 | 4
CN(C)S(=O)(=O)c1cccc(NC(=O)COC(=O)c2cn(-c3ccccc3)nc2-c2ccccc2)c1 | -4 | i | nt | 8 | nt | 4 | -3 | nt
O=C(O)Cn1c(C(F)(F)F)nc2ccccc21 | -4 | i | nt | 9 | -26 | 4 | 5 | -9
C/C(=N/NS(=O)(=O)c1ccc(C)cc1)c1ccc(NC(=O)C(F)(F)F)cc1 | -5 | i | 19 | -2 | nt | 3 | 2 | 4
Cc1cccc(NC(=O)Nc2ccc3c(c2)CCC3)c1 | -23 | i | -36 | -6 | -11 | 1 | 0 | 9
CCc1ccc(-c2nn(-c3ccccc3)cc2C2SCC(=O)N2Cc2ccco2)cc1 (stereo not given) | -4 | i | -147 | -3 | nt | -4 | -7 | 25
Cc1ccc(-c2c(C(=O)NNC(=S)NCC3CCCO3)csc2C)cc1 (stereo not given) | 2 | i | 20 | 0 | nt | 3 | -1 | -1
CCOc1ccc(NC(=O)CSc2nnc(Cn3c(=O)sc4ccccc43)n2C)cc1 | -2 | nt | 9 | 15 | -2 | 4 | 5 | -16
CCN1CCN(C(=O)/C=C/c2c(F)cccc2Cl)CC1 | -3 | i | 12 | 8 | nt | 0 | 3 | -4
C[C@@H](Oc1ccccc1)c1nnn(Cc2ccccc2)c1-c1c([C@@H](C)Oc2ccccc2)nnn1Cc1ccccc1 | -6 | i | 73* | -3 | nt | nt | nt | -7
Cc1ccc(C(=O)NNC(=O)CCOc2cccc(C)c2)cc1 | nt | nt | -5 | nt | -13 | 2 | 6 | -10
CN(C)CC#CCC(O)(c1ccccc1)C1CCCCC1 (stereo not given) | -9 | i | 2 | 10 | -22 | 0 | 2 | -5
